# Bst PK mod: pyruvate kinase (B. stearothermophilus) modulation | partly purified Bacillus stearothermophilus pyruvate kinase, luminescence ATP production; ribose 5-phosphate activator present at AC10 | Potency, µM | hit rate 1.2% among 51,000; in the data active means potency below about 11 µM; inconclusive means mostly about 12 µM to 25 µM; inactive means weaker than that;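 the screen sought inhibitors and activators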;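 note: potency is the fitted concentration of half-maximal effect; scaled between full activation by ribose 5 phosphate and full inhibition by luteolin; about four in five hits inhibit and the cells do not say which; series up to 57 µM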
# YjeE inh: inhibitors of E. coli YjeE (TsaE); Potency, µM; P0AF67; purified YjeE, fluorescence polarisation of a bound ADP probe; hit rate 0.05% among 71,000; active = well fitted falling curve; inconclusive = weaker or top-dose-only fall, or a rising curve; inactive = flat or poorly fitted curve;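 note: top concentration of the series not given in the record; excess ADP was the control for the full effect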
#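 Purified YjeE (10 uM) with BODIPY Texas Red-labeled ADP probe (2 uM); compounds pin-transferred, 15 min at room temperature. Binding inhibition read as decreased fluorescence polarization; ADP titration as control.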
# Active calls of the source: *; i = inactive; ? = inconclusive; . = no result given. Only part of the results is shown; rates above refer to the full screens.
# Start of the listing, in advance (two entries):
item	Bst PK mod	YjeE inh	SMILES
1	>57	i	Cc1cccc(N2CCN(C(=O)C34CC5CC(CC(C5)C3)C4)CC2)c1C
2	>57	i	CC(C)(CNCC(O)c1ccccc1)N1CCOCC1 (stereo not drawn)

# Main list, from the first entry:
item	Bst PK mod	YjeE inh	SMILES
1	>57	i	Cc1cccc(N2CCN(C(=O)C34CC5CC(CC(C5)C3)C4)CC2)c1C
2	>57	i	CC(C)(CNCC(O)c1ccccc1)N1CCOCC1 (stereo not drawn)
3	.	i	Cc1cc(C)nc(SCC2COc3ccccc3O2)n1 (stereo not drawn)
4	>57	i	O=C(Nc1ccc2c(c1)OCO2)C1CCN(S(=O)(=O)Cc2ccccc2)CC1
5	.	i	O=C(Nc1ccccc1C1CC1)c1cccs1
6	.	i	CC(=O)Nc1cccc(O)c1
7	>57	i	CCOC(=O)c1[nH]c2ccccc2c1NC(=O)c1cc(OC)c(OC)c(OC)c1
8	.	i	COc1cc(C(c2sc3ncnn3c2O)N2CCN(c3ccccc3F)CC2)cc(OC)c1OC (stereo not drawn)
9	>57	i	C=CCN1C(=O)CS/C1=C(\C#N)S(=O)(=O)c1ccc(C)cc1
10	?	.	O/N=C1\CCc2cc(Cl)ccc21
11	>57	i	CSc1cccc(-n2cc(-c3ccc4c(c3)OCO4)[nH]c2=O)c1
12	>57	i	CCOc1ccc(-c2nc(CSCC(=O)NCCN3CCOCC3)c(C)o2)cc1
13	>57	i	Cc1ccc(C(=O)N2CCCC(c3nc4c(nnn4Cc4ccccc4)c(=O)[nH]3)C2)cc1 (stereo not drawn)
14	>57	i	Cc1nc(NCCN2CCOCC2)c2nnn(Cc3c(F)cccc3Cl)c2n1
15	>57	i	CCOC(=O)c1cn(CC)c2cc(N3CCCCC3)c(F)cc2c1=O
16	.	i	Cc1ccccc1OCCCC(=O)Nc1ccc(N2CCOCC2)cc1
17	>57	i	O=C1CCCc2nn(-c3ccccc3)c(-c3ccncc3)c21
18	>57	i	COc1ccc(C(=O)NCCCn2ccnc2)cc1
19	.	i	O=C(Nc1ccccc1)N1CCC2(CC1)CCN(C(=O)c1csnn1)CC2
20	>57	i	CCCc1nnc(NC(=O)c2c(O)c3cccc4c3n(c2=O)CC4)s1
21	.	i	COc1ccc(NC(=O)CN(c2ccc(C(C)C)cc2)S(=O)(=O)c2c(C)noc2C)cc1OC
22	.	i	CCCCC(CC)CNC(=O)C1CCCN(S(=O)(=O)c2cnc[nH]2)C1 (stereo not drawn)
23	>57	i	Cc1cc(NC(=O)CSc2nc3c(c(=O)n2-c2ccc(Br)cc2)SCC3)no1
24	>57	i	O=C(CSc1nc2cc(Cl)ccc2o1)c1cccs1
25	>57	i	O=C(OCC(CO)OC(CO)n1ccc(=O)[nH]c1=O)c1ccccc1 (stereo not drawn)

# Along the list, from the results shown.
# Nos. 16 to 25 in Bst PK mod: ., >57, >57, ., >57, ., ., >57, >57, >57
# Nos. 16 to 25 in YjeE inh: i, i, i, i, i, i, i, i, i, i

# Profiles, looked up by structure. Order of values: Bst PK mod, YjeE inh
# Profile of COc1ccc(C(=O)NCCCn2ccnc2)cc1 = >57, i
# Profile of Cc1cc(C)nc(SCC2COc3ccccc3O2)n1 (stereo not drawn) = ., i

# Next section:
item	Bst PK mod	YjeE inh	SMILES
26	>57	i	O=C(CCN1C(=O)c2ccccc2C1=O)N1CCC(c2ccccc2)C1 (stereo not drawn)
27	.	i	CS(=O)(=O)N(Cc1ccccc1)c1ccccc1C(=O)O
28	.	i	O=C(Nc1ccc(Br)cc1F)C1CCCN(S(=O)(=O)c2cnc[nH]2)C1 (stereo not drawn)
29	.	i	Cc1ccc(CNC(=O)CS(=O)Cc2nc(-c3cccs3)oc2C)cc1 (stereo not drawn)
30	>57	i	O=C(NCCCN1CCCC1=O)c1cc(=O)c2ccccc2o1
31	?	i	Fc1ccccc1CSc1ncnc2c1oc1ccccc12
32	.	?	Cc1cc2c(N)cccc2nn1
33	>57	i	COc1ccc(C(=O)N2CCc3cc(OC)c(OC)cc3C2)cc1OC
34	>57	i	CCCCCc1nc2ccccc2c(=O)n1N
35	.	i	C/C(=C\C(=O)c1ccc(C)cc1)Nc1cccc(O)c1
36	>57	i	COC(=O)c1c(N)c(C#N)c2n1CCCCC2
37	>57	i	CC1(C)Cc2c(sc3ncn4nc(CCC(=O)O)c(=O)nc4c23)CO1
38	>57	i	COc1ccc(-c2cc(C(=O)Nc3cccc(C(C)=O)c3)no2)cc1
39	>57	i	CCCS(=O)(=O)N1CCCC(C(=O)N2CCN(c3ccccn3)CC2)C1 (stereo not drawn)
40	>57	i	CCOC(=O)C1=C(N)n2c(s/c(=C\c3cccnc3)c2=O)=C(C(=O)OCC)C1c1cccnc1 (stereo not drawn)
41	>57	i	Cc1ccccc1NC(=O)CSc1nc(N)c(C#N)cc1C#N
42	>57	i	CC(C)CCNC(=O)C(c1ccco1)N(Cc1ccc(F)cc1)C(=O)c1snc(C(N)=O)c1N (stereo not drawn)
43	>57	i	COc1ccc(CN(Cc2nc3ccccc3c(=O)[nH]2)C(=O)C(C)(C)C)cc1
44	.	i	O=C(NC1(C(=O)O)CCCC1)c1ccccc1
45	>57	i	CC1(C)CC(NC(=O)C2CCCCC2C(=O)O)CC(C)(C)N1 (stereo not drawn)
46	.	i	O=C(Cn1cnc2c(cnn2-c2ccc(F)cc2)c1=O)NCC1CCCO1 (stereo not drawn)
47	>26	.	O=C(Cc1ccccc1)Nc1cccc(-c2nnc(-c3ccco3)o2)c1
48	.	i	Cc1ccc(Nc2nc(N)nc(CN3CCCCCC3)n2)cc1
49	>26	.	Cc1nc(NCCN)c(C#N)c2c1COC(C)(C)C2
50	>26	.	CCCCOc1cccc(-c2nnc(N)s2)c1
51	.	i	CC(C)n1c(CCC(=O)O)ccc1-c1ccccc1
52	>57	i	CCOCCCNCc1cccc(OC)c1
53	.	i	Cc1ccccc1OCc1nc(-c2ccc(-n3cccc3)cc2)no1
54	.	i	CC(C)C(C(=O)Nc1ccccc1)N1C(=O)c2ccccc2C1=O (stereo not drawn)
55	.	i	Cn1c(CNc2nc3ccccc3n2C)nc2ccccc21
56	>57	i	COc1ccc2[nH]cc(C(=O)CN3CCCCC3C)c2c1 (stereo not drawn)
57	>57	i	Cc1ccc(OCCCC(=O)Nc2nncs2)cc1
58	?	i	Oc1ccccc1-c1cc(-c2cccc(F)c2)n[nH]1
59	.	i	COc1ccc(-c2c(C)oc3cc(O)cc(O)c3c2=O)cc1OC
60	>57	i	COc1cccc(-c2cc(C(F)(F)F)nc(N3CCOCC3)n2)c1
61	.	i	O=c1c(CCc2ccccc2)nc2cnc(N3CCOCC3)nc2n1C1CC1
62	.	i	CCOC(=O)c1cc(C(=O)OCC)c2cc(Br)ccc2n1
63	>57	i	CCc1ccc(NC2=NC(C(=O)NC3CCCCC3)CC(=O)N2)cc1 (stereo not drawn)
64	>57	i	COC(=O)C1CCN(C(=O)COC(=O)Cn2cnnn2)CC1
65	>57	i	Cc1cc2ccccc2c(=O)n1CC(=O)NCC(=O)N1CCN(c2cccc(Cl)c2)CC1
66	.	i	COc1ccccc1OCCCCCNCCO
67	.	i	COc1ccc(S(=O)(=O)Cc2ccc(C(=O)N3CCN(c4cccc(C)c4C)CC3)o2)cc1
68	.	i	c1ccc(CNc2ccnc(-c3cccnc3)n2)cc1
69	.	i	O=C(O)CSc1cccc2cccnc12
70	>57	i	CCOc1cc(C(=O)Nc2c3c(nn2C(C)(C)C)CS(=O)C3)cc(OCC)c1OCC (stereo not drawn)
71	.	i	COc1cc(C2NC(=O)NC(C)=C2C(=O)OCc2ccccc2)ccc1O (stereo not drawn)
72	.	i	COc1cc2c(c(OC)c1)C(c1ccncc1)CC(=O)N2 (stereo not drawn)
73	>57	i	COCCn1c(COc2ccccc2)nnc1SCC(N)=O
74	>57	i	CC(C)(C)OC(=O)NCCc1nnc(S(=O)(=O)Cc2ccc(Cl)cc2Cl)o1
75	>57	i	COc1cccc(C(=O)Nc2c(F)c(F)c(F)c(F)c2F)c1

# (cont.)
item	Bst PK mod	YjeE inh	SMILES
76	>57	i	CC(C)c1nnc(NC(=O)CCC(=O)NCC2CCCO2)s1 (stereo not drawn)
77	>57	i	Cc1sc(NC(=O)CSc2nnnn2C2CCCC2)c(C#N)c1C
78	>57	i	O=C(Nc1ccon1)c1cccc(Cl)c1
79	>57	i	CC(c1nnc(SCn2nnc3ccccc3c2=O)n1-c1ccc(Cl)cc1)N(C)C (stereo not drawn)
80	>57	i	Cn1c(N)c(C(=O)CSc2nc3ccccc3n2-c2ccccc2)c(=O)n(C)c1=O
81	>57	i	CSC1=C(C#N)C(CC(C)C)C(C(C)=O)=C(C)N1 (stereo not drawn)
82	>57	i	O=C(Nc1ccc2c(c1)OCCO2)c1c(F)c(F)c(F)c(F)c1F
83	.	i	CS(=O)(=O)Nc1ccc(OCc2ccccc2)cc1
84	>57	i	Cc1c(NC(=O)Cn2nc(C(=O)O)c3ccccc3c2=O)c(=O)n(-c2ccccc2)n1C
85	>57	i	Cc1cc(C)cc(N(C(C)C(=O)Nc2c(C)n(C)n(-c3ccccc3)c2=O)S(C)(=O)=O)c1 (stereo not drawn)
86	>57	i	COc1cccc(C(=O)OC(C)CN2CCCC2)c1 (stereo not drawn)
87	>26	.	COc1ccc(/C(O)=C2\C(=O)C(=O)N(c3cc(C)on3)C2c2ccccc2OC)cc1C (stereo not drawn)
88	>26	.	O=C(NCC(F)(F)F)N1CCOCC1
89	>57	i	Cc1noc(C)c1CSc1nc2sc(C)c(C)c2c(=O)n1-c1ccccc1
90	.	i	O=C(CP(=O)(c1ccccc1)c1ccccc1)N1CCCCC1
91	.	i	CC(=O)Nc1ccc(-n2c(C)c(C(C)=O)c(C(C)=O)c2C)cc1
92	>57	i	COc1ccc(CNC(=O)Cn2cnc3c(=O)n(C)c(=O)n(C)c32)cc1
93	>57	i	O=C(Oc1cccc(Oc2ccccc2)c1)N1CCOCC1
94	>57	i	COc1ccccc1OC1=NS(=O)(=O)c2ccccc21
95	>57	i	O=C(NCc1ccccc1Cl)C1CCN(S(=O)(=O)N2CCCCC2)CC1
96	>26	.	O=C1C=C(N2CCN(C3=CC(=O)CCC3)CC2)CCC1
97	>57	i	COc1ccc(-n2cnnc2SCC(=O)c2ccc(S(=O)(=O)N3CCOCC3)cc2)cc1
98	>57	i	COc1ccccc1N1CCN(Cc2nc3ccccc3c(=O)n2CC(C)=O)CC1
99	>57	i	O=c1[nH]cnc2c1nc(SCc1ccccc1)n2C1OC(CO)C(O)C1O (stereo not drawn)
100	>57	i	CCS(=O)(=O)n1nc(C(=O)N2CCOCC2)nc1N

# In another format: results already given.
# Below each SMILES – Bst PK mod | YjeE inh
[87] COc1ccc(/C(O)=C2\C(=O)C(=O)N(c3cc(C)on3)C2c2ccccc2OC)cc1C (stereo not drawn)
→ >26 | .
[77] Cc1sc(NC(=O)CSc2nnnn2C2CCCC2)c(C#N)c1C
→ >57 | i

# The listing continues.
item	Bst PK mod	YjeE inh	SMILES
101	>57	i	CCOC(=O)Cn1c(=O)oc2cc(S(=O)(=O)Nc3cc(OCC)ccc3OCC)ccc21
102	.	i	Cc1ccc(C(=O)c2coc3ccc(OCC(=O)O)cc23)cc1
103	>57	i	O=C1NC(=O)C(CC(=O)N(Cc2ccco2)C2(C(=O)NC3CCCC3)CCCCC2)N1 (stereo not drawn)
104	?	i	COc1cccc(C=Nc2ccc3c(c2)OCCO3)c1O
105	>57	i	COc1cc2c(C(=O)NCCCOC(C)C)cn(CC(C)C)c(=O)c2cc1OC
106	>57	i	COCCOC(=O)CC1=NC(=O)CS1
107	>57	i	Cc1ccc(-c2c(C#N)c(N)nc3c2CCCCC3)o1
108	.	i	O=C(NCc1ccc(F)cc1)c1cc2n(n1)C(C(F)(F)F)CC(C1CC1)N2 (stereo not drawn)
109	>57	i	CCC(C)(C)n1nnnc1C(c1cccs1)N1CCN(c2nc3ccccc3s2)CC1 (stereo not drawn)
110	>57	i	CC(C)CC(c1nnnn1Cc1ccco1)N1CCN(C2CCCC2)CC1 (stereo not drawn)
111	>57	i	CCOc1ccc(CCNC(=O)CCN2C(=O)COc3ccccc32)cc1OCC
112	>57	i	CC(=O)Oc1ccc(N2C(=O)CCC2=O)cc1
113	.	i	COc1ccc(C2=NOC(C(=O)N3CCCc4ccccc43)C2)cc1 (stereo not drawn)
114	>57	i	O=C(c1ccco1)N1CCN(C(=O)N2c3ccccc3Sc3ccccc32)CC1
115	>57	i	Cc1ccc(C)c(N2CCN(C(=O)c3ccccc3Br)CC2)c1
116	.	i	COc1ccc(CN2CC34C=CC(O3)C(C(=O)O)C4C2=O)cc1 (stereo not drawn)
117	>57	i	COc1cccc(C(CC(=O)NCc2ccco2)NS(=O)(=O)c2ccc(C)cc2)c1OC (stereo not drawn)
118	.	i	Clc1ccccc1-c1nccc(-n2ccnc2)n1
119	>57	i	CCCCNC(=O)Nc1cc(C(F)(F)F)c[nH]c1=O
120	>57	i	CCOC(=O)Nc1ccc2c(c1)N(C(=O)CN1CCN3CCCC3C1)c1ccccc1CC2 (stereo not drawn)
121	.	i	CC(=O)NC(c1ccccc1)c1cccnc1 (stereo not drawn)
122	.	i	CC(C)C[C@@H](CC(=O)N[C@@H](CCC(=O)O)CC(=O)O)NC(=O)[C@@H]1CNCC[C@H]1NC(=O)C[C@H](CCCN)NC(=O)C[C@H](Cc1c[nH]c2ccccc12)NC(=O)[C@@H]1CCCC[C@H]1N
123	.	i	O=C(C(Cc1ccccc1)n1cccc1)N1CCN(C2CCCCC2)CC1 (stereo not drawn)
124	>57	i	COc1ccccc1-c1cc(C(F)(F)F)nc(NCc2ccco2)n1
125	.	i	Oc1c(Cl)cc(Cl)c(Cl)c1Cl
